Beta apoptosis: inhibitors of cytokine-induced beta cell apoptosis, primary screen, luminescence; INS-1E cytokine-induced death, ATP luminescence, 48 h; percent of positive-control rescue, neutral wells zero; protection from apoptosis, % (test concentration not listed); 0.8% of 300,000 active;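 active means all replicates at 75% or more, or half of them and the mean; inconclusive means half reach 75% but not the mean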;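 further: 0% = cytokine-treated negative control wells and 100% = positive control rescue; higher means more ATP so stronger rescue from cytokine killing; wells of about 40 µL received 100 nL stock; the first replicate is given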
AF4-AF9 inh: inhibitors of AF4 peptide binding to AF9, primary screen, biochemical, AlphaScreen, biotin-AF4 peptide, FLAG-AF9, single point. 0.47% of 350,000 active. AID 651704, 2012. inhibition, % at 10 µM;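 active means every replicate reaching a set inhibition limit, whatever the replicate mean, cut at about 25% in these data; inconclusive means mean inhibition reaches that limit but some replicates miss it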;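 further: 0% = plate neutral control median and 100% = total signal loss; the record names both 10 and 1 µM as test concentration; the first replicate is given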
Target sequence (P42568 whole entry, looked up): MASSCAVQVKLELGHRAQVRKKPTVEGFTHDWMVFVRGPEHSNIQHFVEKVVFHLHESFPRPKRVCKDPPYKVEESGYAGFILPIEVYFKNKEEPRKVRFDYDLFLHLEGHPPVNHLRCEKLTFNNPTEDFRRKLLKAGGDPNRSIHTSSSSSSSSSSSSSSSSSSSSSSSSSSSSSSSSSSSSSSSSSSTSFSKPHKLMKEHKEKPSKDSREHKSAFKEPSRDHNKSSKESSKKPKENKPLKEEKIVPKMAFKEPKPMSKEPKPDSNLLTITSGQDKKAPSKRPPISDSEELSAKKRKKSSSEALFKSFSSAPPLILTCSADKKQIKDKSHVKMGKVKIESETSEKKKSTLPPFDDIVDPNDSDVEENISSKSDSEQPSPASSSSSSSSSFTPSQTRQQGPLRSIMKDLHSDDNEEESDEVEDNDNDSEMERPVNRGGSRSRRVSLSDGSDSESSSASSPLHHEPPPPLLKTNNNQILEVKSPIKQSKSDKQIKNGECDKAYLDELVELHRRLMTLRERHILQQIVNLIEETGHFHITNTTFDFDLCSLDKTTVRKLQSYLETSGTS
FGF22 binding: binders of human FGF22 protein, primary screen, FGF22 synaptogenesis inhibitor project, biophysical, thermal shift, single point; recombinant FGF22 thermal shift, SYPRO orange fluorescence; percent of sucrose octasulfate shift, DMSO zero; calls only at 9.99 µM; AID 651658, 2012; 1.5% of 340,000 active; Fibroblast growth factor 22 (Homo sapiens), Q9HCT0;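 active means melting point raised past a set limit in the mean and every replicate; inconclusive means no clear call; three in four hits are not shown here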
Target sequence (Q9HCT0 whole entry, looked up): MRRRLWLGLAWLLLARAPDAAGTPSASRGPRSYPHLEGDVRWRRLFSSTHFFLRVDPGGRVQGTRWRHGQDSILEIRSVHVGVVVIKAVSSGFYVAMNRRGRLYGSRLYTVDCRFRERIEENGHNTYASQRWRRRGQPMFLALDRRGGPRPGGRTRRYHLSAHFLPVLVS
RanGTP-Imp inh: inhibitors of RanGTP-importin-beta interaction, primary screen, biochemical, FRET, CFP-Ran, YFP-importin-beta, homogeneous | Ran GTPase (GTP-bound) - importin-beta complex | cell-free CFP-Ran/YFP-importin-beta FRET ratio | inhibition, % (concentration not given with the values) | 1.1% of 300,000 active;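 active means most replicates above 15%; inconclusive means exactly half above 15%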;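 further: 0% = DMSO wells and 100% = Ran loaded with GDP instead of GTP; wells of about 40 µL received 100 nL stock; the first replicate is given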
Ecoli rRNA inh: reduced GFP signal of wild-type E. coli, primary screen, bacterial rRNA inhibitor project, GFP/RFP fluorescence, OD600, single point; GFP signal change (wild-type ribosome), % (concentration not given with the values); E. coli WT GFP vs humanized-ribosome RFP mutants, 24 h; hits give low values; DMSO median 0, no signal -100; 1.6% of 350,000 active;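 active means significant combined selectivity score with lowered wild-type GFP, culture density cut under 30%, mutant RFP and density less affected; inactive means any of these conditions unmet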; further: one replicate is shown; some compounds called inactive have numbers as strong as hits
Calb FLC: C. albicans growth inhibition with fluconazole, primary screen, CaCi-2 strain, Alamar Blue fluorescence; 0.57% of 300,000 active; growth inhibition, % (test concentration not listed); C. albicans CaCi-2 (fluconazole-resistant clinical isolate) + fluconazole, 48 h; AID 1979, 2009;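 active means most replicates above 75%; inconclusive means exactly half above 75%; inactive means most below 75%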;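 further: all wells also contain fluconazole at 8 µg/ml as a sub-toxic cotreatment; 0% = median of DMSO wells and 100% = median of geldanamycin control wells; wells of about 8 µL received 7.5 nL stock; the first replicate is given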
T cruzi repl: inhibitors of intracellular T. cruzi growth, primary screen, luminescence, NIH3T3 host cells. T. cruzi beta-gal in NIH3T3, 90 h. inhibition, % (concentration not given with the values). 1.4% of 300,000 active. AID 1885, 2009;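 active means mean inhibition across valid replicates above about 55%, limit read from the data; inconclusive means mean below that limit but half or more replicates reach it; inactive means mean below it, under half of replicates reach it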;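 further: signal also drops with host cell toxicity which is not excluded here; 0% = plate median of DMSO wells and 100% = zero luminescence signal; higher percent means less beta-gal luminescence so fewer parasites; stock transfer was 50 nL into about 50 µL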
ALR H2O2 inh: inhibitors of human ALR sulfhydryl oxidase, primary screen, biochemical, H2O2 detection, HRP-luminol luminescence, single point; 3.8% of 290,000 active; inhibition, % (concentration not given with the values); FAD-linked sulfhydryl oxidase ALR (Homo sapiens), P55789; purified ALR, DTT oxidation;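 active means mean and each replicate at 75% or more; inconclusive means only one of the two met; inactive means neither met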;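 further: stock transfer was 7.5 nL into about 7.5 µL; 0% = neutral wells and 100% = wells with inactivated enzyme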
Target sequence (P55789 whole entry, looked up): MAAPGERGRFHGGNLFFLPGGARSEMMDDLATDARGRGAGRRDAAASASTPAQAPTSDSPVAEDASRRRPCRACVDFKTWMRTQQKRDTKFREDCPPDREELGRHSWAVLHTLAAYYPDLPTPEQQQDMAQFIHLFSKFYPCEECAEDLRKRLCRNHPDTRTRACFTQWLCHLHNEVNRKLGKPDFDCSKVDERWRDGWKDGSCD
Ecoli rRNA inh OD600: second read-out of Ecoli rRNA inh, no call of its own (marks repeat the call); OD600 change, %; measured here: OD600 growth;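 optical density of the mix in the first replicate; 0 = DMSO median and -100 = no signal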
Ecoli rRNA inh RFP: also measured in Ecoli rRNA inh; calls as there; RFP signal change, %; measured here: RFP humanized mutant strains;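 first replicate; 0 = DMSO median and -100 = no signal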
The depositor's hits bear a star; i = inactive; ? = inconclusive; . = not tested or not shown. Not all compounds are listed, so the mix of outcomes need not match the whole.

canonical_smiles,ALR H2O2 inh,T cruzi repl,Beta apoptosis,FGF22 binding,Calb FLC,Ecoli rRNA inh OD600,RanGTP-Imp inh,Ecoli rRNA inh RFP,Ecoli rRNA inh,AF4-AF9 inh
CCCN(CCC)Cc1c(C(=O)N/N=C/c2ccc(Br)cc2)nnn1-c1nonc1N,-5,4,5,i,7,-2,1.3,3.9,2,4.3
COc1ccc(OC2OC3COC(c4ccco4)OC3C(O)C2NC(C)=O)cc1 (centres undefined),-5,-4,-3,i,-1,18,2.0,4.0,10,0.3
CCOC(=O)c1[nH]c2ccc(F)cc2c1NC(=O)CN1CCc2cc(OC)c(OC)cc2C1,9,18,2,.,0,.,-3.6,.,.,.
Cc1cc(C)c(NC(=O)CS(=O)CC(=O)N2CCN(c3ccccc3)CC2)c(C)c1 (centres undefined),37,-19,-13,i,-6,-6,1.4,-7.8,-11,-33
COc1ccc(C(=O)O)cc1S(=O)(=O)Nc1ccc2cn[nH]c2c1,-49,.,3,i,.,9,.,0.1,10,-2.2
COc1ccccc1C(=O)NC(=O)COC(=O)c1nc(Cl)ccc1Cl,2,-42,-5,i,0,2,5.1,-2.5,7,-1.4
COc1ccc(-c2ccc(CCC(=O)O)n2C(C)C)cc1,71,-8,-4,.,13,.,-0.1,.,.,.
COc1ccccc1OCCC(=O)OCC(=O)Nc1cccc(Br)c1,.,-20,-1,.,12,.,1.2,.,.,.
CC12CCC3C(CCC4N(CCO)CCC34C)C1CCC2O (centres undefined),0,-2,2,i,4,18,7.3,1.7,12,-6.3
O=C(Nn1cnc2ccccc2c1=O)c1ccc(Cl)c([N+](=O)[O-])c1,-1,4,1,i,-11,8,-0.2,-0.1,10,-6.2
CO/N=C/NC(=O)C1=NOC(CNc2ncc(C(F)(F)F)cc2Cl)C1 (centres undefined),-7,13,-1,.,-6,.,2.4,.,.,.
Cc1ccc(F)c(C2=CC(=O)C[C@H](c3ccc(F)cc3)C2)c1,-3,.,-5,i,.,-41,.,-10,-25,0.4
Cc1cc(C(=O)Cn2nnc(-c3ccc(Cl)cc3)n2)c(C)n1-c1ccccc1,.,-21,-2,i,5,-15,-0.2,-2.7,-11,-3.6
Cc1c(NC(=O)C(C)OC(=O)CCC2CCCC2)c(=O)n(-c2ccccc2)n1C (centres undefined),-4,0,-3,i,-7,2,2.6,0.2,-2,-1.0
O=C(COC(=O)C1=NN(c2ccccc2)C(=O)CC1)Nc1ccc([N+](=O)[O-])cc1C(F)(F)F,.,.,-3,i,.,1,.,-4.0,-9,0.5
CCOc1cc(C(=O)N2CCCN(C)CC2)cc(OCC)c1OCC,2,-3,0,i,-10,16,-0.3,2.6,8,-1.4
COc1ccccc1CC(NC(C)=O)C(=O)NC1CCN(C(=O)Nc2ccc(F)cc2)CC1 (centres undefined),.,4,-5,i,-7,2,?,0.2,9,-0.7
COC(CC(=O)NNC(=S)Nc1ccccc1)OC,26,-7,-3,i,?,0,-4.3,9.6,6,-1.6
CCc1noc(C)c1C(=O)NCCc1ccc(S(N)(=O)=O)cc1,-5,4,-3,i,-6,4,-0.9,-2.6,5,?
COC(=O)c1ccc(CSc2ccccc2C)o1,-10,4,-3,.,-4,.,1.9,.,.,.
CC1CC(C(=O)Nc2ccccc2)C(=O)O1 (centres undefined),-6,-4,-2,i,0,11,?,-1.4,8,-19
CC(C)(O)[C@@H]1Cc2c(ccc3ccc(=O)oc23)O1,-6,-14,-5,i,-9,7,7.4,1.7,4,0.5
CNCC(O)COc1ccccc1 (centres undefined),-14,-9,.,.,-5,.,0.5,.,.,.
CC(CCN1CCC(n2nccc2NC(=O)c2ccccc2Cl)CC1)c1ccccc1 (centres undefined),-1,8,5,i,-7,.,-3.0,.,.,2.0
COc1ccc(N2CCN(C(=O)C3Cc4ccccc4CN3C(=O)c3ccccc3)CC2)cc1 (centres undefined),15,23,-3,i,-13,0,-0.6,20,-2,7.8
CN(C(=O)COC(=O)c1ccc2[nH]c3c(c2c1)CCCC3)C1CCS(=O)(=O)C1 (centres undefined),6,-1,-5,i,2,-2,11,-4.9,2,6.5
Cc1ccc2cc(C#N)c(N3CCN(C(=O)c4cccs4)CC3)nc2c1,8,-8,.,i,2,-18,8.2,8.9,-19,-36
Cc1ccc(S(=O)(=O)NN2C(=O)c3ccccc3NC2C)cc1 (centres undefined),.,-4,1,i,-19,2,-2.7,-0.4,-11,-5.3
Nc1nc(CSc2nc3ccccc3s2)nc(Nc2ccccc2)n1,.,6,-3,.,0,.,12,.,.,.
Cc1ccc(Cn2ccsc2=NC(=O)CCl)cc1,97*,.,38,i,-30,-6,2.6,-1.9,-13,-1.7

Additional records follow:
canonical_smiles,ALR H2O2 inh,T cruzi repl,Beta apoptosis,FGF22 binding,Calb FLC,Ecoli rRNA inh OD600,RanGTP-Imp inh,Ecoli rRNA inh RFP,Ecoli rRNA inh,AF4-AF9 inh
O=C(Nc1ccc2ccccc2n1)c1ccccc1,-1,3,6,i,-13,-4,-1.9,-0.7,-7,-4.8
O=c1c2c(nc3nc(NCc4ccccc4Cl)[nH]n13)CCC2,-1,3,.,i,7,3,1.9,-1.6,1,-1.2
O=C(Nc1ccccn1)c1c(O)c2cccc3c2n(c1=O)CCC3,-14,-24,-7,.,-7,.,2.3,.,.,.
CN1CCN(CC(=O)c2cc(C(C)(C)C)c(O)c(C(C)(C)C)c2)CC1,.,7,-4,i,9,-15*,4.5,-1.6*,-31*,10
CCN(CC)c1nc(N2CCOCC2)nc2ccccc12,-5,-3,-2,i,-22,-6,2.8,-1.7,-8,-28
Cc1ncoc1C(=O)Nc1cccc(Cl)c1,-5,-22,-1,i,-20,11,8.0,-2.9,7,6.7
CCN1C(=O)c2cccc3c(S(=O)(=O)Nc4ccccc4)ccc1c23,-19,22,-10,.,31,.,-2.4,.,.,.
COc1ccccc1CNC(=O)[C@H](Cc1c[nH]c2ccccc12)NC(=O)[C@@H]1Cc2ccccc2CN1,.,7,-2,i,-3,.,-1.7,.,.,5.8
CCOC(=O)N1CCC(N2CCN(C3CCCC3)C(CCO)C2)CC1 (centres undefined),12,-13,-5,i,-16,13,-4.9,0.5,16,2.2
Cc1cccc(-c2nc3ccccc3c(=O)n2N)c1,-5,-2,-3,i,-11,10,2.3,0.1,5,4.2
O=C(NCC1CCN(c2ccc(S(=O)(=O)N3CCOCC3)cc2)CC1)Nc1ccccc1,-12,-10,3,i,5,-12,3.0,0.6,-1,-0.3
Cc1c(C(=O)C(=O)NCCc2ccc(S(N)(=O)=O)cc2)c2ccccc2n1C,0,-21,0,.,9,12,4.2,-0.8,9,-6.1
O=C(Nc1cccc(F)c1)[C@@H]1CCCN1,3,-6,0,i,5,15,-0.1,3.0,22,-4.2
O=[N+]([O-])c1cc([N+](=O)[O-])c(N2CCCCCC2)cc1NCCO,-24,10,-12,.,19,.,-1.6,.,.,.
O=C(CN1CCN(c2ccccc2)CC1)Nc1ccccc1C(F)(F)F,3,5,1,.,-1,.,1.5,.,.,.
Cc1cc(C)nc(N(C#N)CN2C(=O)c3ccccc3S2(=O)=O)n1,0,0,-6,.,-5,.,1.6,.,.,.
Cc1ccc(Cn2c(O)c(N=NC(=S)Nc3ccccc3F)c3ccccc32)cc1,-5,66*,14,.,-6,7,-5.4,2.0,9,6.8
O=C(Cc1ccc(-c2ccccc2)cc1)Nc1ccccc1,1,22,0,.,-2,-7,?,-0.1,0,12
C/C(=N\NC(=O)c1cccs1)c1ccncc1,12,-9,-6,i,-3,7,0.5,-1.1,10,-1.3
N#CCC(=O)Nc1ccc(C(=O)OCC(=O)c2ccc3c(c2)NC(=O)CO3)cc1,19,.,0,i,.,9,.,31,6,-5.8
Cc1csc(Nc2ccc(Cl)cc2)n1,71,1,1,i,-22,-5,1.7,-0.8,4,-6.4
CC1CCN(C(=O)Cn2nnnc2CN2CCOCC2)CC1,-2,3,.,i,-6,13,-0.7,0.5,16,-1.9
O=C(CCN1C(=O)S/C(=C/c2ccccc2)C1=O)Nc1ccc(O)c(C(=O)O)c1,4,-8,5,i,-7,17,6.0,1.1,5,0.3

Four entries from above, as labelled records:
Cc1ccc2cc(C#N)c(N3CCN(C(=O)c4cccs4)CC3)nc2c1
- ALR H2O2 inh = 8
- T cruzi repl = -8
- Beta apoptosis = .
- FGF22 binding = i
- Calb FLC = 2
- Ecoli rRNA inh OD600 = -18
- RanGTP-Imp inh = 8.2
- Ecoli rRNA inh RFP = 8.9
- Ecoli rRNA inh = -19
- AF4-AF9 inh = -36

O=C(CCN1C(=O)S/C(=C/c2ccccc2)C1=O)Nc1ccc(O)c(C(=O)O)c1
- ALR H2O2 inh = 4
- T cruzi repl = -8
- Beta apoptosis = 5
- FGF22 binding = i
- Calb FLC = -7
- Ecoli rRNA inh OD600 = 17
- RanGTP-Imp inh = 6.0
- Ecoli rRNA inh RFP = 1.1
- Ecoli rRNA inh = 5
- AF4-AF9 inh = 0.3

CNCC(O)COc1ccccc1 (centres undefined)
- ALR H2O2 inh = -14
- T cruzi repl = -9
- Beta apoptosis = .
- FGF22 binding = .
- Calb FLC = -5
- Ecoli rRNA inh OD600 = .
- RanGTP-Imp inh = 0.5
- Ecoli rRNA inh RFP = .
- Ecoli rRNA inh = .
- AF4-AF9 inh = .

CCN(CC)c1nc(N2CCOCC2)nc2ccccc12
- ALR H2O2 inh = -5
- T cruzi repl = -3
- Beta apoptosis = -2
- FGF22 binding = i
- Calb FLC = -22
- Ecoli rRNA inh OD600 = -6
- RanGTP-Imp inh = 2.8
- Ecoli rRNA inh RFP = -1.7
- Ecoli rRNA inh = -8
- AF4-AF9 inh = -28

Bioassay records from PubChem.
